# Assay outcomes as filed in PubChem.
# GLA inh pH 4.5 – alpha-galactosidase A (human) inhibition, pH 4.5. purified enzyme, 4-MU-alpha-Gal fluorescence, pH 4.5. activity change, negative = inhibition, % at 105 µM. 230,000 tested, under 10 active. AID 1467; inconclusive = small, poorly fitted or top-dose-only inhibition, or a rising curve; inactive = flat fitted curve, though single readings scatter; no compound was filed as active;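 also: 0% = full activity with enzyme and -100% = basal without enzyme; dose as in the result columns while the protocol names 77 µM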
# Target sequence (P06280 whole entry, looked up): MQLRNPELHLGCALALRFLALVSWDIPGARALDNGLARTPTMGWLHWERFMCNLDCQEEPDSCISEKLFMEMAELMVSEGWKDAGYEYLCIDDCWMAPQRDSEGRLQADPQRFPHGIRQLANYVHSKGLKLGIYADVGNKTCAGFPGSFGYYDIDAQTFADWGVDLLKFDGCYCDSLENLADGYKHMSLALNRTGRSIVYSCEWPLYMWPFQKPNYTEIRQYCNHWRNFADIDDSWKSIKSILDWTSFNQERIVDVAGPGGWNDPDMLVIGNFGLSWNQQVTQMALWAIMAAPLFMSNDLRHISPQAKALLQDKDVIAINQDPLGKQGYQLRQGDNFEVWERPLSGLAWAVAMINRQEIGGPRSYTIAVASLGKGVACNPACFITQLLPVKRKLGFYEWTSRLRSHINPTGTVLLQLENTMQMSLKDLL
# Rango dissoc inh – prevents RanGTP from dissociating the Rango-importin beta complex; Biochemical FRET Rango-importin beta, RanGTP-induced dissociation; Potency, µM (titrated, usually from 46.1 µM), for inactives: at the highest dose activity change, negative = inhibition; 0.071% of 340,000 active; active means falling FRET ratio curve, often poorly fitted, with flat reads before Ran was added; inconclusive means other falling curves, or compound fluorescence or quenching; inactive means flat or rising ratio curve;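 also: potency is read from the fitted curve at half-maximal effect; % of control where 0% means no effect; nearly all actives have a fitted effect of over 45% in size; -100% = wells without RanGTP and RCC1; the record marks most hits as doubtful in a second field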
#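 Compounds sat 5 min at room temperature with 0.1 uM Rango biosensor plus 0.25 uM importin beta, then FRET pre-read. RanGTP-RCC1 (0.6 uM Ran, 2mM GTP, 0.2 uM RCC1) added for 45 min, and the CFP/YFP post-read measured blocked complex dissociation.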
# miR-21 reporter – miR-21 reporter, rising signal. HeLa miR-21 FLuc reporter, luciferase, 48 h. Potency, µM (titrated, usually from 38.3 µM), without a hit: top-dose reporter change, positive = more light. 340,000 tested, under 10 active. AID 2288; active = well fitted rising curve with a large enough effect; inconclusive = small, poorly fitted or top-dose-only effect; inactive = no such curve, though single readings can be large or run the other way;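 also: % of control where 0% means no effect; miR-21 action dims this reporter so a rising signal means less miR-21 action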
#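 HeLa cells stably expressing CMV-driven firefly luciferase with a downstream miR-21 binding sequence, endogenously expressing miR-21, were treated with titrations (up to about 40uM final) for 48 hours at 37 degree Celsius. Luciferase luminescence was read after lysis.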
# Rango-impB inh – Rango-importin beta binding inhibition | 0.031% of 340,000 active | Rango CFP/YFP FRET sensor + importin beta, 45 min | Potency, µM (doses to about 92.2 µM), for the others: at the highest dose inhibition of complex formation | Q14974 | AID 540263; active = rising FRET ratio curve, often small or poorly fitted; inconclusive = mostly compound fluorescence or quenching in the first reads; inactive = flat curves in all reads;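 also: potency is read from the fitted curve at half-maximal effect; 0% = DMSO wells and 100% = buffer wells lacking importin beta; nearly all actives have a fitted effect of over 15% in size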
#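 Inhibition scored from the CFP 486 nm/YFP 530 nm FRET ratio 45 min after adding 0.125 microM importin beta to 50 nM Rango biosensor preincubated 5 min with compound (room temperature, PBS with DTT, Tween-20, BSA). No-importin wells as positive control.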
# * hit, by the source's call; ? = inconclusive; . = not tested or not shown. Some of the compounds tested; count on the stated rates, not on these rows.
SMILES,GLA inh pH 4.5,Rango dissoc inh,miR-21 reporter,Rango-impB inh
Cc1[nH]c2ccccc2c1/C=N/n1cnnc1,12,8%,-6%,2.0%
CCN1C(Nc2ccccc2)=NC[C@@H]1Cc1ccccc1,.,31%,-3%,-0.3%
COc1ccc(-c2c(-c3cc(OC)cc(OC)c3)sc3ccc(OC)cc23)cc1,.,-9%,.,-0.8%
O=C(COC(=O)COc1ccccc1F)NCCc1ccc(F)cc1,.,-9%,.,-2.3%
COc1cc2c(cc1NC(=O)c1ccco1)CCCC2,-9,-4%,-48%,0.8%
O=C(CN1C(=O)NC2(CCCCC2)C1=O)NCC(=O)Nc1ccc(F)c(F)c1,.,-9%,.,1.7%
COc1ccccc1-n1c(=O)[nH]c2c(C(N)=O)nc(CC(C)C)nc21,10,22%,-19%,-1.3%
COc1cc(Cl)ccc1OCc1cc(C(=O)NCc2cc(C(C)C)no2)no1,.,-6%,-26%,0.8%
Cc1ccc(OCC(=O)N(C)CC(=O)N(CC(C)C)c2c(N)n(CC(C)C)c(=O)[nH]c2=O)c(C)c1,.,-7%,.,1.9%
C=CC[N+](C)(C)CC(=O)OCc1ccccc1,-1,13%,-2%,1.0%
O=C(CC(NC(=O)c1ccccc1)c1ccccc1)Nc1cccc2ccccc12 (stereo not given),10,-7%,-13%,-0.3%
CCCCOc1ccc(CSc2nc(C)[nH]c2[N+](=O)[O-])cc1[N+](=O)[O-],-3,2%,-6%,0.3%

# Single records (already shown). Values in the order: GLA inh pH 4.5	Rango dissoc inh	miR-21 reporter	Rango-impB inh
# Results for COc1cc(Cl)ccc1OCc1cc(C(=O)NCc2cc(C(C)C)no2)no1 : .	-6%	-26%	0.8%
# Results for CCCCOc1ccc(CSc2nc(C)[nH]c2[N+](=O)[O-])cc1[N+](=O)[O-] : -3	2%	-6%	0.3%
# Results for O=C(COC(=O)COc1ccccc1F)NCCc1ccc(F)cc1 : .	-9%	.	-2.3%

# Next compounds follow:
SMILES,GLA inh pH 4.5,Rango dissoc inh,miR-21 reporter,Rango-impB inh
COc1ccc(NC(C)=O)cc1S(=O)(=O)N1CCN(Cc2cccs2)CC1,.,2%,.,-3.3%
CC(=O)N1c2ccc(C)cc2Sc2c1ccc1ccccc21,.,3%,.,-0.6%
O=C1c2ccccc2OCOc2ccccc21,-3,4%,-1%,4.8%
O=[N+]([O-])c1ccc2nc(-c3ccccc3[N+](=O)[O-])[nH]c2c1,-18,2%,-21%,4.3%
Cc1cc(C)n(-c2nc(NCCCN(C)C)c3c4c(sc3n2)COC(C)(C)C4)n1,-5,10%,-10%,2.6%
O=C(Oc1c(CN2CCOCC2)cc(Cl)c2cccnc12)c1cccs1,1,-5%,?,-1.2%
CCN(CC)S(=O)(=O)c1ccc(N2CCCC2)c(NC(=O)c2ccc([N+](=O)[O-])o2)c1,.,3%,.,?
CNC(=O)NC(=O)C(C)OC(=O)c1oc2ccccc2c1CSc1ccc(Cl)cc1 (stereo not given),8,6%,5%,-1.3%
COc1ccc(-c2csc3ncnc(N4CCN(S(=O)(=O)c5ccccc5C#N)CC4)c23)cc1,.,45%,-3%,-7.0%
Cn1c(C(O)C(O)c2ccccc2)nc2ccccc21 (stereo not given),2,0%,1%,-0.8%
O=C(OCc1ccccn1)c1ccc(COc2ccc3ccccc3c2)o1,5,17%,-66%,?
Cc1cccc(NC(=O)CS(=O)(=O)c2cn(C)c3ccccc23)c1C,-3,6%,-10%,0.6%

# An excerpt of these results, as tab-separated lines.
SMILES	GLA inh pH 4.5	Rango dissoc inh	miR-21 reporter	Rango-impB inh
COc1ccc(NC(C)=O)cc1S(=O)(=O)N1CCN(Cc2cccs2)CC1	.	2%	.	-3.3%
CC(=O)N1c2ccc(C)cc2Sc2c1ccc1ccccc21	.	3%	.	-0.6%
O=C1c2ccccc2OCOc2ccccc21	-3	4%	-1%	4.8%
O=[N+]([O-])c1ccc2nc(-c3ccccc3[N+](=O)[O-])[nH]c2c1	-18	2%	-21%	4.3%
Cc1cc(C)n(-c2nc(NCCCN(C)C)c3c4c(sc3n2)COC(C)(C)C4)n1	-5	10%	-10%	2.6%

# Later entries.
SMILES,GLA inh pH 4.5,Rango dissoc inh,miR-21 reporter,Rango-impB inh
O=C(O)c1ccccc1C(=O)NCCc1c(C(=O)O)[nH]c2ccc(F)cc12,3,-8%,0%,-2.4%
COC(=O)c1cc(C(=O)OC)cc(N2C(=O)CC(N3CCN(c4ccccc4)CC3)C2=O)c1 (stereo not given),-8,7%,3%,1.5%
COc1ccc(/C=C2\C(=O)NCC(=O)N2C)cc1,.,-6%,-5%,1.2%
CCCc1cc(C(=O)NC(C)C2CCCO2)cs1 (stereo not given),.,2%,-38%,4.9%
C/C(=N/NC(=O)c1ccc(Br)o1)C(C)C,4,0%,-56%,2.7%
CSc1ncc(Cl)c(C(=O)Nc2ccccc2C)n1,.,-7%,-3%,3.7%
O=C(N/N=C/c1ccc(OC(=O)c2ccc3c(c2)OCO3)cc1)c1cncc(Br)c1,-15,18%,-3%,0.7%
CCn1c(SCC(=O)Nc2nc3ccccc3s2)nc2c(c1=O)SC(C)C2 (stereo not given),?,-13%,-1%,3.2%
COc1ccccc1CNc1cncnc1,.,2%,-5%,-0.3%
COCCN(C)Cc1cn(-c2ccc(F)cc2F)nc1-c1ccccc1C,-7,28%,-23%,4.9%
CNC[C@@H]1Oc2ccc(NC(=O)Nc3ccccc3)cc2C(=O)N([C@@H](C)CO)C[C@H]1C,.,8%,.,-0.7%
Cc1nn(-c2ccc(F)cc2)c2sc(C(=O)OC3CCOC3=O)cc12 (stereo not given),-15,-21%,-6%,4.3%
CC1(C)CNC(=O)c2sc(NC(=O)c3ccccc3Cl)nc2C1,1,13%,-30%,0.0%
CCOc1ccc(OCCCCN(C)C)cc1,6,14%,-3%,-0.7%
COc1ccc(NC(=O)Cn2cnc3sc(C)c(S(=O)(=O)N4CCOCC4)c3c2=O)cc1Cl,.,-12%,-1%,-1.4%
CCOc1ccc(NS(=O)(=O)c2cc(NC(=O)c3ccc(C)cc3)ccc2Cl)cc1,3,3%,22%,-1.4%
O=C(C1CC(c2cccc(Br)c2)=NO1)N1CCc2ccccc2C1 (stereo not given),0,-5%,-23%,-3.2%
C=CCOc1ccccc1CNCCc1ccc(S(N)(=O)=O)cc1,1,8%,-3%,-1.9%
CC1=CC2=NC(=O)CC(C)(C(=O)N(CC(=O)NC3CCCC3)c3ccccc3F)N2C=C1 (stereo not given),.,-1%,-5%,?
CC(C)(C)OC(=O)C[C@H]1C/C=C\C[C@@H](CC(=O)NCCO)C(=O)NC[C@H](c2ccccc2)OC1=O,.,-1%,.,-0.2%
COc1cccc2c1C(=O)c1c(O)c3c(c(O)c1C2=O)C[C@@](O)(C(=O)CO)C[C@@H]3OC1CC(N)C(O)C(C)O1 (stereo not given in full),.,9%,.,11%
O=C(CN1C(=O)/C(=C2\SC(=S)N(CCS(=O)(=O)O)C2=O)c2ccccc21)Nc1cccc(Br)c1,.,11%,2%,-3.8%
Cn1cc(CNC(=O)C2CCC(=O)N(Cc3ccc(Cl)cc3)C2)cn1 (stereo not given),.,9%,-2%,-0.7%
O=C(NCc1ccco1)C(c1ccccc1F)N(CC1CCCO1)C(=O)Cn1nnc2ccccc21 (stereo not given),10,-1%,-2%,?
Cc1ccccc1N(CC(=O)NC1CCCCC1)C(=O)CCC(=O)Nc1nccs1,.,-4%,-3%,-2.3%
CC(=O)c1ccc(N(C(=O)Cc2c[nH]c3ccccc23)C(C(=O)NC2CCCCC2)c2cccs2)cc1 (stereo not given),?,-9%,-37%,-0.5%
COC1CCN(C(=O)C2CCC(=O)N(CCc3cccc(F)c3)C2)CC1 (stereo not given),.,1%,-27%,1.3%
CC(=O)c1ccc(Oc2cc(-c3ccccc3)nc(-c3ccccc3)n2)cc1,-5,10%,-6%,-0.4%
CC/C=C(/NC(C)=O)c1ccccc1,.,22%,.,?
Cc1ccc(C(=O)OCc2cc(=O)n3ccsc3n2)s1,.,-3%,.,-0.5%
CC1Cc2ccccc2N1CC(=O)NC(=O)NCc1ccco1 (stereo not given),-10,?,10%,?
Cc1[nH]cnc1CSCc1ccc(Cl)cc1,6,-10%,-20%,-3.7%
COc1ccc(CNC(=O)c2n[nH]c3ccccc23)cc1OC,-8,-4%,-2%,0.3%
CC(NC(=O)C(C)N1CCN(S(=O)(=O)c2ccccc2)CC1)c1ccccc1 (stereo not given),.,12%,.,-0.6%
CCC(C)(C)NC(=O)CN(C(=O)C(=O)Nc1ccc2c(c1)OCCO2)N1CCOCC1,.,7%,10%,?
O=C(NCC(=O)N1CCCCCCC1)c1ccco1,.,-1%,.,-2.3%
O=C(CN(Cc1ccco1)C(=O)c1cc(=O)[nH]c2ccccc12)Nc1ccccc1C(F)(F)F,-4,3%,2%,1.9%
Cc1ccc(C(=O)c2cc([N+](=O)[O-])ccc2N2CCN(C)CC2)cc1,-9,-13%,16%,6.8%
N#C/C(=C\C=C\c1ccccc1)C(=O)NCc1ccco1,4,-7%,5%,0.1%
O=C(NCCc1ccccc1)C1CCCN1C(=O)Nc1cccc(Cl)c1 (stereo not given),.,2%,0%,-2.8%
Cc1ccc2c(c1)C(c1ccncc1)=NNC(c1cccnc1)=N2,5,-20%,7%,-3.7%
CS(=O)(=O)N(CC(=O)NCCSCc1c(F)cccc1Cl)c1cccc([N+](=O)[O-])c1,6,2%,1%,2.0%
CC(C)CC1NC(=O)N(CC(=O)N(C)C2CCCCC2)C1=O (stereo not given),.,-4%,.,?
CN(Cc1cn(C)nc1-c1ccc(Oc2ccccc2)cc1)CC1COCCO1 (stereo not given),-6,15%,1%,-0.1%
CCC1=Nc2cc(C(=O)NCCCN3CCOCC3)ccc2Sc2ccccc21,.,1%,-7%,0.3%
O=C(c1ccc(F)cc1)C1CCN(C(=S)Nc2ccccc2Cl)CC1,2,8%,12%,1.3%
